Screening data from PubChem.
Sfp PPTase inh: blocks B. subtilis Sfp PPTase activity | Biochemical Sfp PPTase activity, qHTS | AID 1490 | Potency, µM, without a hit: max response, negative = inhibition, hits mostly inhibitors | 3.5% of 310,000 active | Q9F4F7; active means well fitted inhibition curve with a large enough effect; inconclusive means small, poorly fitted or top-dose-only effect, or another doubt; inactive means no such curve, though single readings can be large or run the other way;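 further: the enzyme is Sfp with the accession as filed and its product quenches rhodamine fluorescence; potency means the concentration at half of the fitted maximal effect; 0% = enzyme reaction without inhibitor and -100% = no enzyme wells; top concentration of the series not given in the record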
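Sfp 15 nM + cpd, 15 min RT; start w/ rhodamine-CoA 5 uM, BHQ-2-YbbR 12.5 uM (final); 50 mM Hepes pH 7.6, 10 mM MgCl2, 0.01% NP-40, 0.01% BSA; read 525/598 nm at 0 and 30 min.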
Menin MLL FP FL: menin-MLL binding inhibition, fluorescein peptide; Fluorescence polarization, fluorescein-MLL peptide displacement from menin; FP activity change, % at 61.4 µM; 290,000 tested, under 10 active; AID 1766; inconclusive = falling polarisation curve, or a change in total fluorescence; inactive = total fluorescence flat and polarisation flat or rising; no compound was filed as active; the % refers to the polarisation; negative = inhibition;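 further: % of control where 0% means no effect; inhibitors lower the polarisation; unlabelled MLL peptide was the positive control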
CtBP-E1A blk: inhibitors of CtBP/E1A interaction; 0.49% of 340,000 active; AlphaScreen GST-E1A/His-CtBP binding, 1536-well; stronger effect = lower value; control for the full effect not named in the record; activity change, % (concentration not given with the values); in the data active means activity change below about -65%; inconclusive means about -30% to -65%; inactive means above about -30%; further: on the % scale 0 is the no-effect control and ±100 the full control effect
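Protein mix (5X: 125 nM each GST-E1A, His-CtBP) was incubated with pinned compound 2 h at 37 deg C in dark, in 50 mM Tris pH 8.0 buffer with 300 mM NaCl. Glutathione donor and nickel acceptor beads followed; AlphaScreen signal read after 1 h.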
gsp antag: antagonists of gsp mutant (McCune-Albright syndrome). Potency, µM (series often up to 76.9 µM), inactives show top-dose activity change, negative = inhibition, most hits filed as inhibitors. AID 624288. gsp-mutant cells, cAMP HTRF, 30 min; control for the full effect not named in the record. 0.4% of 340,000 active; active = falling curve of any shape with a large fitted effect; inconclusive = falling curve, mostly with a smaller effect; inactive = flat or rising curve; cell line not stated here;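 further: intracellular cAMP measured with PDE inhibitor Ro 20-1724 present during compound exposure; potency means the concentration at half of the fitted maximal effect; on the % scale 0 is the no-effect control and ±100 the full control effect; nearly all actives have a fitted effect of over 65% in size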
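Cells in G418 medium, seeded 16-24 h, 37C; buffer exchange to DPBS + 1 mM CaCl2, 0.5 mM MgCl2, 0.05% BSA; cpds in DMSO + […] (300 uM stock), 30 min 37C; HTRF cAMP detection.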
ClpP mod: qHTS Assay for Activators of ClpP | purified B. subtilis ClpP, FRET peptide cleavage, 20 min | Potency, µM (doses to about 57.5 µM), without a hit: at the highest dose activity change, negative = active | 1.9% of 340,000 active; active = well fitted falling curve with a large enough effect; inconclusive = small, poorly fitted or top-dose-only effect; inactive = no such curve, though single readings can be large or run the other way; further: potency means the concentration at half of the fitted maximal effect; the source files actives as falling curves though it sought activators and does not explain the sign; nearly all actives have a fitted effect of over 65% in size; many hits overshoot -100%
Target sequence (P80244 whole entry, looked up): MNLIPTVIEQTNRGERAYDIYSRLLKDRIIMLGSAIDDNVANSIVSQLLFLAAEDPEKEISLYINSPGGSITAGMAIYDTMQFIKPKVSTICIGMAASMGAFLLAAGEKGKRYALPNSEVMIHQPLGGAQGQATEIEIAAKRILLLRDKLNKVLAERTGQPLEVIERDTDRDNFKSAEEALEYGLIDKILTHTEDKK
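FRET quenching reversal measured ClpP activation: 10 microg/mL B. subtilis ClpP at pH 8 with the FRET-FV decapeptide, read at 430 nm after 320 nm excitation. The 20-min minus 0-min signal was scaled between DMSO/no-enzyme wells and ADEP (5.8 microM final).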
gsp ag: gsp mutant agonism; gsp mutant cells, cAMP HTRF, 30 min; control for the full effect not named in the record; Potency, µM (series often up to 76.9 µM), for the others: at the highest dose activation (cAMP increase), actives largely listed as activators; 0.13% of 340,000 active; active = well fitted activation curve with a large enough effect; inconclusive = small, poorly fitted or top-dose-only effect, or another doubt; inactive = no such curve, though single readings can be large or run the other way; cell line not stated here;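 further: phosphodiesterase inhibitor Ro 20-1724 added with compounds to block cAMP breakdown; potency means the concentration at half of the fitted maximal effect; nearly all actives have a fitted effect of over 60% in size; about a fifth of the inactives were tested at one dose only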
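Cells in DMEM/10% FBS with G418 were pretreated with compounds in DMSO plus […] (300 uM stock) for 30 min at 37C. cAMP was measured by HTRF (cAMP-d2 plus anti-cAMP antibody-K) after 30 min at room temperature.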
TRPV1 potentiator: human TRPV1 potentiation; Q8NER1; TRPV1-expressing cells, Fluo-8 calcium influx, capsaicin EC20 potentiation; host cell line not named in the record; control for the full effect not named in the record; potentiation, % at 8.33 µM; 0.02% of 320,000 active; active means potentiation above 80%; inconclusive means 30% to 80%; inactive means below 30%; further: 0% is about no effect
Target sequence (Q8NER1 whole entry, looked up): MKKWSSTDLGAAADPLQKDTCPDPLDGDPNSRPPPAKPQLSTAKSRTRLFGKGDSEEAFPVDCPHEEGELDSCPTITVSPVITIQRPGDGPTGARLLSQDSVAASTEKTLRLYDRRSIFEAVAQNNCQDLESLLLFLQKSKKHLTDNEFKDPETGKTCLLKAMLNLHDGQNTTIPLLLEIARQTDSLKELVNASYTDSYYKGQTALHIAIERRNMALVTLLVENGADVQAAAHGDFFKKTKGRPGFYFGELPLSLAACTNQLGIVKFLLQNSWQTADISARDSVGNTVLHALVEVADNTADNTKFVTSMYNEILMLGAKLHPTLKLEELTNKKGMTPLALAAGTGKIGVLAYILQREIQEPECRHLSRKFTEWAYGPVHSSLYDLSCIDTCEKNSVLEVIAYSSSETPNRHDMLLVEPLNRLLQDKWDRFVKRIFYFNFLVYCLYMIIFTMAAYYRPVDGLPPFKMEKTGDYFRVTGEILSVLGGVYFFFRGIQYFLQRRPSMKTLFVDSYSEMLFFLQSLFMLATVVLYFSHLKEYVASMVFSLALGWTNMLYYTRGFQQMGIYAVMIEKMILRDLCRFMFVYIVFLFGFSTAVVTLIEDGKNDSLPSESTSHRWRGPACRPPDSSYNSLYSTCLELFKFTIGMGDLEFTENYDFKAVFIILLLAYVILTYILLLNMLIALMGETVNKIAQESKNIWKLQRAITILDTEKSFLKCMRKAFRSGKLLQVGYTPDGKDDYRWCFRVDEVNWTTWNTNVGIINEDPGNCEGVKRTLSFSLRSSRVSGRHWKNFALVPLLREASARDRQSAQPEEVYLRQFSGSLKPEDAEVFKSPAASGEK
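TRPV1-expressing cells were cultured overnight at 35.5C and loaded with Fluo-8 calcium dye for 40 to 90 min at room temperature. After a 10 s baseline, compound was added and calcium influx was read kinetically for 3 min (ex 480/em 520 nm).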
An asterisk follows results filed as active; ? = inconclusive; nt = not tested or not shown; & = joins results of further samples; [ ] = another dose, or the depositor's remark. The list is partial; rates above refer to the full screens.

SMILES	Sfp PPTase inh	Menin MLL FP FL	CtBP-E1A blk	gsp antag	ClpP mod	gsp ag	TRPV1 potentiator
Cc1nn(Cc2ccccc2Cl)c(C)c1C(=O)OCC(=O)NC1CCS(=O)(=O)C1 (stereo unspecified)	-10%	6.3	-3	5%	-2.4%	-8%	1
Cc1ccc(-c2nc3ccccc3c(=O)n2-c2nccs2)cc1	5%	0.2	2	-15%	-0.6%	-1%	-22
COc1cccc(NP(=O)(Oc2ccc(Cl)cc2)Oc2ccc(Cl)cc2)c1	24%	-0.6	-8	-8%	-0.8%	-2%	0
CCOC(=O)c1ccc(NC(=O)CSc2ccc(-c3cccnc3)nn2)cc1	2%	4.5	-21	-6%	nt	?	2
Cc1[nH]c2ccc(OC(F)(F)F)cc2c1CCNCc1cccc([N+](=O)[O-])c1	-17%	-0.2	-16	3%	nt	-50%[inhibitor]	-4
O=C1CN=C(c2cccs2)c2c(sc3c2CCCC3)N1	25%	3.6	-5	-14%	-4.7%	-26%	-1
COC(=O)C1=C(c2ccc(Cl)c(C(F)(F)F)c2)C[C@@H]2CC[C@H]1N2C(=O)NCCNC(C)=O	nt	nt	4	7%	1.0%	3%	4
Cc1cc(C)c(OCC(=O)N2CCN(c3ncc(C(F)(F)F)cc3Cl)CC2)c(C)c1	-11%	nt	-6	-9%	-1.9%	-60%[inhibitor]	-3
COC(=O)c1c(NC(=O)C2CC=CCC2C(=O)O)sc2c1CCCCC2 (stereo unspecified)	-6%	2.0	-3	?	-18%	?	-5
CC[C@H]1CN2CCC1C[C@H]2[C@H](O)c1ccnc2ccc(OC)cc12 (stereo partly specified)	nt	nt	2	2%	4.4%	nt	-5
CCCN1CCC[C@@H]2Cc3nc(N)ncc3C[C@H]21	nt	4.0	-2	-2%	-21%	nt	nt
O=C(Nc1ccccc1)c1c(O)[nH]c(=S)[nH]c1=O	nt	nt	1	-8%	1.9%	nt	nt

Three records drawn at random from those above:
SMILES	Sfp PPTase inh	Menin MLL FP FL	CtBP-E1A blk	gsp antag	ClpP mod	gsp ag	TRPV1 potentiator
Cc1ccc(-c2nc3ccccc3c(=O)n2-c2nccs2)cc1	5%	0.2	2	-15%	-0.6%	-1%	-22
Cc1cc(C)c(OCC(=O)N2CCN(c3ncc(C(F)(F)F)cc3Cl)CC2)c(C)c1	-11%	nt	-6	-9%	-1.9%	-60%[inhibitor]	-3
O=C(Nc1ccccc1)c1c(O)[nH]c(=S)[nH]c1=O	nt	nt	1	-8%	1.9%	nt	nt

Additional entries.
SMILES	Sfp PPTase inh	Menin MLL FP FL	CtBP-E1A blk	gsp antag	ClpP mod	gsp ag	TRPV1 potentiator
O=C(/C=C/c1ccc2c(c1)OCO2)c1c(O)n(CCC2=CCCCC2)c(=O)[nH]c1=O	-3%	?	7	14%	0.1%	1%	4
CCOC(=O)[C@@H]1[C@H]2COc3ccc(Br)cc3[C@H]2N2C(=O)N(c3cccc(C)c3)C(=O)[C@]12C	nt	nt	3	-8%	-0.5%	-8%	nt
COC(=O)C1=C(c2cc3ccccc3s2)C[C@@H]2CC[C@H]1N2C(=O)NCCCOC(C)C	nt	nt	nt	-6%	2.1%	2%	nt
Cc1nc2ccccc2c(=O)n1-c1ccc(Br)cc1[N+](=O)[O-]	2%	1.1	nt	9%	0.2%	-21%	7
CCOC(=O)c1ccccc1C(=O)OCC	7%	0.5	6	3%	0.5%	nt	nt
Cc1cc(OCC(=O)N[C@@H](Cc2ccccc2)C(=O)O)c2c3c(c(=O)oc2c1)CCCC3	11%	-0.6	-11	2%	5.0%	nt	12
CCn1c(C)c(C(=O)Nc2ccc(OC)cc2)c2cc(OC)ccc21	11%	-6.9	nt	18%	1.2%	28%	-17
O=C1NC(=O)C(=Cc2cc3c(cc2[N+](=O)[O-])OCO3)C(=O)N1	-89%	-1.6	-1	-12%	nt	0%[15.4 µM]	3
N#C/C(=C\c1ccc(O)cc1)C(=O)O	12%	5.6	2	-4%	-3.3%	nt	nt
CCC(=NCCO)c1c(O)n(-c2ccccc2)c(=O)[nH]c1=O	11%	1.2	9	-4%	-2.7%	-1%	-7
O=C(O)c1c[nH]c2ccc(S(=O)(=O)N(CCCl)CCCl)cc12	5%	-1.9	6	-6%	-0.8%	-15%	0
CC(C)N1C(=O)NC(=O)C2(Cc3cc([N+](=O)[O-])ccc3N(C)C2c2ccccc2)C1=O (stereo unspecified)	8%	-0.4	9	-16%	-10%	0%	-1
CC/C(=N\Nc1ccccc1)c1c(O)n(-c2ccc(OC)cc2)c(=O)[nH]c1=O	?	0.9	3	-19%	-0.2%	-1%[15.4 µM]	12
COc1ccc(CCC(C)NCCc2ccccc2)cc1 (stereo unspecified)	-3%	-0.8	2	-2%	0.1%	-13%	-10
COc1cc(OC)c(OC)cc1/C=C(\C#N)C(=O)NCc1cccs1	11%	?	0	-14%	1.0%	29%	-4
COc1ccc(CCC(=O)N2CCC3(CC2)OCCO3)cc1	18%	0.0	2	-2%	-3.6%	-22%	8
COC(=O)C1=C(c2cccc(OC)c2OC)C[C@@H]2CC[C@H]1N2C(=O)N1CCC(O)CC1	nt	nt	16	6%	-1.0%	-14%	nt
CCCc1[nH]nc2c1C1(C(=O)N(CC(N)=O)c3ccccc31)C(C(=O)OC)=C(N)O2 (stereo unspecified)	1%	2.5	2	3%[15.4 µM]	-0.3%	-48%[inhibitor]	12
CC(C)CCOC(=O)c1c(N)n(CC2CCCO2)c2nc3ccccc3nc12 (stereo unspecified)	-16%	1.2	26	-22%	28µM*	-38%[inhibitor]	27
CC(C)(C)NC(=O)C1CC2CCCCC2CN1 (stereo unspecified)	-12%	2.6	1	0%	nt	-10%[15.4 µM]	-39
CCC(=NCc1ccc(F)cc1)c1c(O)n(C)c(=O)n(C)c1=O	6%	0.9	0	7%	1.4%	?	19
Cc1ccsc1C(=O)C1CCCN(Cc2cnn(C)c2)C1 (stereo unspecified)	8%	0.5	-14	7%	nt	-12%[15.4 µM]	2
Cc1c(Oc2cc(NN3CCCCC3)c([N+](=O)[O-])cc2[N+](=O)[O-])cccc1[N+](=O)[O-]	18%	-1.8	-1	-8%	0.9%	-11%	-4
COc1ccc(OC)c(N2C(=O)NC(=O)C(CCc3ccncc3)(CCc3ccncc3)C2=O)c1	13%	6.7	5	2%	0.6%	-32%[inhibitor]	-6
CN(C)CCNC(=O)c1cccn(Cc2cc(C(F)(F)F)cc(C(F)(F)F)c2)c1=O	17%	-2.9	-16	10%	nt	-17%[15.4 µM]	-1
COc1cc(/C=C2/SC(=S)N(Cc3ccccc3)C2=O)ccc1OCC(=O)O	-25%	?	-17	-8%	nt	?	28
O=C(O)CCCOc1ccc(Cl)cc1Cl	18%	-2.1	2	-8%	-0.6%	nt	nt
COc1ccccc1N1C(=O)CC(=O)NC1=O	-3%	0.8	nt	5%	0.2%	1%	18
N/C(=N/[N+](=O)[O-])N1CCN(C(=O)c2ccc(Cl)cc2)CC1	19%	-2.4	-1	5%	nt	-9%	1
COc1cc2c(cc1OC)C(C(=O)NC(C)C)C1CCCCN1C2=O (stereo unspecified)	1%	-3.0	1	0%	nt	-1%[15.4 µM]	5
Nc1c(C(=O)NCC2CCCO2)c2nc3ccccc3nc2n1Cc1ccco1 (stereo unspecified)	4µM*	?	10	16%	nt	8%	-10
CC(C)CNc1c2c(nc3ccccc13)CCC2	6%	3.9	-8	7%	-5.5%	-24%[15.4 µM]	-4
O=C(O)C1CC2(Cl)C(Cl)=C(Cl)C1(Cl)C2(Cl)Cl (stereo unspecified)	nt	nt	-19	-2%	nt	8%	nt
Cc1cc(OC(=O)c2cccs2)c2c3c(c(=O)oc2c1)CCCC3	13%	7.2	3	?	-2.7%	?	3
C[C@]12CCC3C(CC[C@H]4C[C@@H](O)CC[C@]34C)C1C[C@@H](O)[C@@H]2O (stereo partly specified)	nt	nt	5	25%	nt	?	nt
Cc1ccnc(NS(=O)(=O)c2ccc(N=Cc3c(O)n(C)c(=O)n(C)c3=O)cc2)n1	-15%	?	-5	13%	nt	1%[15.4 µM]	1
O=C(O)CCn1cc(C=C2C(=O)NC(=O)NC2=O)c(-c2ccc(Br)cc2)n1	?	nt	-1	2%	1.8%	7%[15.4 µM]	7
CC(=O)OC1(C)CC(C)C(=O)C(C(O)CC2CC(=O)NC(=O)C2)C1 (stereo unspecified)	nt	nt	-21	-3%	1.4%	-37%[inhibitor]	nt
CCCCNC(=O)Nc1ccc(C(O)(C(=O)OC)C(F)(F)F)cc1 (stereo unspecified)	18%	-1.3	0	-6%	-0.6%	10%	-12
CN1C2C=C(N(C(=O)c3ccc(Cl)cc3)c3ccccc3)CC1CC2 (stereo unspecified)	14%	1.1	-3	1%	-2.7%	-63%[inhibitor]	-9
CCSc1cc(C2C(C#N)=C(N)Oc3n[nH]c(C)c32)c(C)o1 (stereo unspecified)	-28%	1.9	3	5%	-0.4%	6%	7
CC(=O)[C@H]1CCC2C3CC[C@H]4C[C@@H](O)CC[C@]4(C)C3CC[C@@]21C (stereo partly specified)	nt	nt	2	6%	2.4%	-8%[15.4 µM]	nt
CN1Cc2c(c(C#N)c(N)n(C)c2=S)CC1(C)C	-23%	?	-2	0%	4.6%	8%	-6
O=P(O)(O)Cc1ccccc1OP(=O)(c1ccccc1)c1ccccc1	11%	1.4	3	-14%	-2.5%	?	16
Cc1nn(C(C)(C)C)c(C)c1/C=N/OC(=O)Nc1ccc(Cl)c(Cl)c1	-6%	-2.7	nt	-25%	1.5%	-38%[inhibitor]	-17
Cc1nnc2n1-c1ccc(Br)cc1C(c1ccccc1Cl)=NC2	12%	-0.4	-10	7%	-1.4%	-5%	-22
CCNc1nc(Cl)nc(NC(C)C)n1	-1%&-4%	-1.7&15	16	21%	-0.3%	-13%[15.4 µM]	-8
COc1ccc(CN2CCCCC2c2cccnc2)cc1C (stereo unspecified)	-12%	-2.8	5	-21%	-1.8%	5%	-16
O=C1NC(=O)N(c2ccccc2)C(=O)/C1=C/c1ccc2c(c1)Cc1ccccc1-2	50µM*	3.3	nt	nt	nt	nt	-9
